Screening results: PubChem BioAssay, National Center for Advancing Translational Sciences (NCATS)
Menin-MLL FL inh: qHTS Assay for Inhibitors Targeting the Menin-MLL Interaction in MLL Related Leukemias: Competition With Fluorescein Labeled MLL-derived Peptide; FP activity change, % at 61.4 µM; 290,000 tested, under 10 active; Fluorescence polarization, fluorescein-MLL peptide displacement from menin; inconclusive = falling polarisation curve, or a change in total fluorescence; inactive = total fluorescence flat and polarisation flat or rising; no compound was filed as active; the % refers to the polarisation; negative = inhibition;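 also: % of control where 0% means no effect; inhibitors lower the polarisation; unlabelled MLL peptide was the positive control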
TRPML1 ag: qHTS for Agonists of the Human Mucolipin Transient Receptor Potential 1 (TRPML1) | TRPML1-expressing cells, Ca2+ dye fluorescence, FDSS; host cell line not named in the record; reference of the full effect not given here | 410,000 compounds, 0.12% hits | Mucolipin-1 (Homo sapiens), Q9GZU1 | activation, % (test concentration not listed); in the data active = activation above about 50%; inconclusive = about 30% to 50%; inactive = below about 30%; also: 0% is about no effect; the text of the record puts the active cut at 80%
Target sequence (Q9GZU1 whole entry, looked up): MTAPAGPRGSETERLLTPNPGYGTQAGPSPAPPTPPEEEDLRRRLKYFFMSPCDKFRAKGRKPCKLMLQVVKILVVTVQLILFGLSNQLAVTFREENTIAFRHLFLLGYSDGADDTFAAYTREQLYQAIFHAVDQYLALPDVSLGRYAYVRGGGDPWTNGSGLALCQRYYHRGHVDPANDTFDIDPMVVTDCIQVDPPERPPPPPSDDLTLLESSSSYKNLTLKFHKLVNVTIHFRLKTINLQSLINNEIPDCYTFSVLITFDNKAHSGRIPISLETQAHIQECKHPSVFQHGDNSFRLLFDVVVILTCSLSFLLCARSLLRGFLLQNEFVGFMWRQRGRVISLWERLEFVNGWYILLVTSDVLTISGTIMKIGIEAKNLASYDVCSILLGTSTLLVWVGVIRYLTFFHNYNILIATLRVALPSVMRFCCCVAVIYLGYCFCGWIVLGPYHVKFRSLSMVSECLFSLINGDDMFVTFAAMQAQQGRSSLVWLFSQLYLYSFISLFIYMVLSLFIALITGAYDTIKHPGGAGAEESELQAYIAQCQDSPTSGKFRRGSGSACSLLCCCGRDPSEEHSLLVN
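Tetracycline-induced TRPML1-DL cells are seeded and incubated overnight before loading with a no-wash Ca2+ dye and quencher. Agonist activity is taken from the 110 s fluorescence read following compound pin-transfer on an FDSS, before EC80 54-4 challenge.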
gsp ag: qHTS for Agonist of gsp, the Etiologic Mutation Responsible for Fibrous Dysplasia/McCune-Albright Syndrome: qHTS | gsp mutant cells, cAMP HTRF, 30 min; control for the full effect not named in the record | Potency, µM (highest dose often 76.9 µM), without a hit: at the highest dose activation (cAMP increase), most hits filed as activators | 340,000 compounds, 0.13% hits | AID 624287, 2012; active = well fitted activation curve with a large enough effect; inconclusive = small, poorly fitted or top-dose-only effect, or another doubt; inactive = no such curve, though single readings can be large or run the other way; cell line not stated here;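 also: phosphodiesterase inhibitor Ro 20-1724 added with compounds to block cAMP breakdown; potency is read from the fitted curve at half-maximal effect; nearly all actives have a fitted effect of over 60% in size; about a fifth of the inactives were tested at one dose only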
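Cells stably selected in G418 were plated at 2000/well, grown 16-24 hr, then given compounds in DMSO with the PDE inhibitor […] (300 uM solution added) for 30 min at 37C; cAMP was read by HTRF.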
TRPML1 inh: qHTS for Inhibitors of the Human Mucolipin Transient Receptor Potential 1 (TRPML1); TRPML1-inducible cells, Ca2+ dye fluorescence, FDSS; hits give low values; inhibition of EC80 agonist-evoked calcium signal; activity change, negative = inhibition, % (concentration not given with the values); 390,000 compounds, 0.02% hits; AID 624415, 2012; in the data active means activity change below about -50%; inconclusive means about -30% to -50%; inactive means above about -30%;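 also: stimulus is agonist 54-4 at its EC80 concentration; % is scaled to controls: 0 for no effect and ±100 for the full control effect; the text of the record puts the active cut at -80%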
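TRPML1-DL cells, Tet-induced overnight (~16 h, 37 °C) at 1,500 cells/well, were loaded with Ca8 no-wash dye plus quencher for 45-90 min at room temperature. Compounds were pinned during FDSS kinetic reading; agonist 54-4 at EC80 (4 uM final) then added.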
gsp antagonist: qHTS for Antagonists of gsp, the Etiologic Mutation Responsible for Fibrous Dysplasia/McCune-Albright Syndrome: qHTS; gsp-mutant cells, cAMP HTRF, 30 min; control for the full effect not named in the record; Potency, µM (series often up to 76.9 µM), without a hit: at the highest dose activity change, negative = inhibition, hits mostly inhibitors; 340,000 compounds, 0.4% hits; active = falling curve of any shape with a large fitted effect; inconclusive = falling curve, mostly with a smaller effect; inactive = flat or rising curve; cell line not stated here;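 also: intracellular cAMP measured with PDE inhibitor Ro 20-1724 present during compound exposure; potency is read from the fitted curve at half-maximal effect; % is scaled to controls: 0 for no effect and ±100 for the full control effect; nearly all actives have a fitted effect of over 65% in size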
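G418-selected cells were plated in DMEM/10% FBS for 16-24 h at 37C, then treated with compounds plus the PDE inhibitor […] (300 uM solution added) for 30 min at 37C. Intracellular cAMP was measured by HTRF after 30 min lysis at room temperature.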
ClpP mod: qHTS Assay for Activators of ClpP. ATP-dependent Clp protease proteolytic subunit (Bacillus subtilis (strain 168)), P80244. purified B. subtilis ClpP, FRET peptide cleavage, 20 min. Potency, µM (series often up to 57.5 µM), for inactives: top-dose activity change, negative = active. 340,000 compounds, 1.9% hits. AID 651965, 2013; active = well fitted falling curve with a large enough effect; inconclusive = small, poorly fitted or top-dose-only effect; inactive = no such curve, though single readings can be large or run the other way; also: potency is read from the fitted curve at half-maximal effect; the source files actives as falling curves though it sought activators and does not explain the sign; nearly all actives have a fitted effect of over 65% in size; many hits overshoot -100%
Target sequence (P80244 whole entry, looked up): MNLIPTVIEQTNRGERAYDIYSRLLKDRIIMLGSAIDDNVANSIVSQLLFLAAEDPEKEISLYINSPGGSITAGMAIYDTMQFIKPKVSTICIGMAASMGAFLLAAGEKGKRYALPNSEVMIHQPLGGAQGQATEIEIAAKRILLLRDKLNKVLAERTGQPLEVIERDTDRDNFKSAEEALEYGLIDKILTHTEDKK
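ClpP 10 microg/mL final, pH 8 Tris/KCl buffer with BSA, glycerol, Tween-20; compound pinned in; FRET-FV substrate; RT 20 min; Ex320/Em430; ΔFRET vs ADEP 5.8 microM, DMSO, no enzyme.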
Numbers without * were called inactive; u = inconclusive; x = not tested or not shown; [ ] = dose if it differs, or a comment. Compounds were not picked by outcome. Share with any hit: about 2.1%.

SMILES | Menin-MLL FL inh | TRPML1 ag | gsp ag | TRPML1 inh | gsp antagonist | ClpP mod
CCn1ccc2cc(S(=O)(=O)N3CCCN(C(=O)Nc4ccccc4C(F)(F)F)CC3)ccc21 | x | 5.2 | x | -21.6 | x | 0.2%
Cc1ccc(N(C(=O)c2ccc(S(=O)(=O)N3CCOCC3)cc2)C2C=CS(=O)(=O)C2)cc1C (stereo unspecified) | -11.3 | 1.5 | 14.2% | 6.0 | 7.0% | -0.2%
COc1ccc(C(=O)OCC[N+]2(C)CCOCC2)cc1 | -3.5 | 0.0 | u | -11.0 | 4.2% | x
Cc1ccc(-c2onc(C)c2C)cc1S(=O)(=O)NC1CCCCC1 | x | 1.3 | x | 11.0 | x | 1.3%
CCn1c(-c2ccccc2)c[nH]c1=S | 1.8 | -0.8 | 2.8% | 20.9 | 9.7% | u
Cc1ccnc(NS(=O)(=O)c2ccc(NC(=O)Cc3ccc(F)cc3)cc2)n1 | 1.3 | 0.5 | -6.7% | 24.4 | -8.7% | -0.8%
Cn1c2c(c(=O)c3ccccc31)CCCC2 | -4.3 | 0.9 | 11.8%[15.4 µM] | -4.6 | 9.1% | 0.1%
O=C(CCN1C(=O)c2ccccc2S1(=O)=O)N1CCN(c2ccccc2F)CC1 | x | 0.4 | -0.2%[15.4 µM] | -10.9 | -3.3% | x
N=c1n(CCN2CCCCC2)c2ccccc2n1CC(=O)c1cccc([N+](=O)[O-])c1 | -13.0 | 1.1 | -1.0% | -1.7 | -3.9% | 1.4%
O=C(CN1CCN(S(=O)(=O)c2ccc(F)cc2)CC1)NCc1cccs1 | x | 0.3 | 12.9%[15.4 µM] | -1.4 | 9.4% | x
Cc1cc(/C(N)=N/OC(=O)Nc2ccccc2)no1 | 1.6 | 0.2 | -3.0%[15.4 µM] | -6.6 | -25.4% | 0.9%
Cc1[nH]c2ccccc2c1C(=O)CN1C(=O)C(=O)N(C2CCCC2)C1=O | 0.3 | 0.2 | 0.0%[15.4 µM] | -4.2 | 7.9% | x
Cc1cccc(C(=O)Nc2c(C(=O)N3CCN(c4ccc(F)cc4)CC3)oc3ccccc23)c1 | x | 4.1 | x | -7.4 | x | u
O=C(C=Cc1ccc(Cl)s1)c1ccc(Cl)s1 | x | 2.2 | 1.2% | 15.5 | 3.2% | x
CCn1c(=S)sc2c(=O)n(CC(=O)Nc3ccccc3C(F)(F)F)c(C)nc21 | -3.2 | -1.3 | 3.5% | 1.7 | 6.9% | -0.1%
C=CCn1c(SCCOc2ccc(OC)cc2)nnc1C(CO)NC(=O)c1ccc(OC)cc1 (stereo unspecified) | 6.1 | 0.8 | 0.6% | -1.7 | -26.5% | -2.2%
Cc1cc(N=Cc2c(O)n(-c3ccc4c(c3)OCO4)c(=O)c3ccccc23)ccn1 | u | -0.4 | -10.4% | -3.8 | 0.1% | -4.7%
COc1ccc(CCC(=O)N2CCN(S(=O)(=O)c3ccc4ccccc4c3)CC2)cc1 | 5.6 | 0.6 | -39.7% | -0.8 | -9.0% | -3.6%
N#CCCN(Cc1cccnc1)C(=O)Nc1ccccc1 | 0.7 | -0.9 | -44.6%[inhibitor] | -4.5 | 9.7% | 0.3%
Cc1ccc(-c2nnc(CSc3nc(C)nc4sc(C)c(C)c34)o2)cc1 | 1.0 | 0.4 | 26.4% | -17.3 | 6.4% | -1.2%
O=C(C1CCN(CC2CCCCC2)CC1)N1CCCC1 | -7.5 | 1.8 | -1.2% | 25.7 | 23.0% | -0.4%
O=C(O)/C=C\C(=O)Nc1cccc(C(=O)Nc2cccc(O)c2)c1 | -6.3 | 1.7 | -11.0%[15.4 µM] | 0.2 | 1.1% | x
O=C(N/N=C/c1ccc(Cl)c([N+](=O)[O-])c1)c1cnccn1 | 1.8 | -0.1 | u | -8.9 | 0.8% | 22.3%
CCOC(=O)C1=C(C)NC(C)=C(C(=O)OCC)C1c1ccc(O)cc1 | 3.0 | -0.7 | -15.1% | -4.1 | -4.0% | -22.7%
Cc1ccc(CNC(=O)Cn2cccc2)cc1 | 5.0 | 1.0 | -0.2% | -4.5 | 1.1% | -2.8%
Cc1ccc(/C(N)=N/OC(=O)COc2ccc(Cl)c(C)c2)cc1 | 5.3 | 0.8 | u | -23.5 | 8.1% | -1.4%
Cc1ccc(N(CC(=O)NC(C)(C)C)C(=O)CCC(=O)Nc2nccs2)cc1C | -7.4 | 0.5 | -26.4% | 18.4 | 2.7% | x
Cc1cc(-c2nc3ncccc3o2)ccc1NC(=O)CC(C)C | 2.7 | -0.7 | 7.1% | 0.0 | -10.4% | 4.1%
COc1cc(C(=O)N(Cc2ccccc2)c2cccc(C)c2)ccc1OC(F)F | x | 1.2 | 6.6% | 1.1 | -7.7% | u
CSc1ncccc1C(=O)Nc1nc2c(C)cccc2s1 | 6.2 | 2.7 | 0.3% | 36.3 | -8.2% | -2.2%
C=CCNc1ncnc2c1ncn2[C@H]1CN(C2CCCC2)C[C@@H](CO)O1 | x | 0.9 | x | 31.3 | x | 0.9%
Cc1ccc(S(=O)(=O)N2CC=C(c3c(C)n(CC(=O)N4CCCC4)c4ccccc34)CC2)cc1C | x | 1.5 | x | 7.3 | x | -12.2%
NC(=S)Nc1ccc(F)c(F)c1F | 1.0 | -0.8 | 16.1% | -2.8 | 8.9% | 0.8%
CCn1c(SCc2ccccc2F)nc(=O)c2c(C(=O)OC)cc(C3CC3)nc21 | x | 1.1 | x | -0.3 | x | -13.2%
CCCCN(C)CCNC(=O)c1ccc(Cn2c(=O)[nH]c3cc(OC)c(OC)cc3c2=O)cc1 | x | -0.5 | x | -7.0 | x | 1.8%
O=C(CN(CC1CCCO1)C(=O)CCC(=O)Nc1nccs1)NCC1CCCO1 (stereo unspecified) | 0.1 | 0.3 | 0.0% | -1.1 | 6.3% | 1.9%
CCc1ccc(OCC2Cn3c(nc4c3c(=O)[nH]c(=O)n4C)O2)cc1 (stereo unspecified) | -4.8 | x | -41.6% | x | -6.1% | -0.5%
O=C(Nc1ccccc1)C1=C[C@H](c2ccc(Br)cc2)C[C@H](OCc2ccc(CO)cc2)O1 | 0.5 | 0.7 | x | -2.1 | -16.6% | -1.4%
COc1ccc(NC(C)=O)cc1NC(=O)c1ccc(C#N)cc1 | -1.3 | 1.2 | -2.5% | 11.5 | 1.3% | 0.3%
O=C(O)COc1c(Cl)cc(/C=C2\NC(=O)NC2=O)cc1Br | 1.9 | -0.6 | 10.4%[15.4 µM] | 24.8 | -10.4% | x
Cc1cc(N2CCN(C)CC2)n2cc(-c3ccc(F)cc3)nc2n1 | 8.2 | 0.1 | -1.4% | -5.1 | 7.5% | 7.08µM*
CCOc1ccc(C(=O)CCC(=O)Nc2ccccc2C)cc1 | 3.3 | -0.1 | -11.9% | 14.2 | 0.8% | 0.1%
COc1ccc(C(CNC(=O)c2ccc(NS(=O)(=O)c3ccc(F)c(C)c3)cc2)N2CCCC2)cc1 (stereo unspecified) | x | 3.3 | u | 0.8 | 6.4% | -1.5%
Cc1ccc(C)c(NC(=O)CCc2ccc(S(=O)(=O)NC3CCCCC3)cc2)c1 | 1.2 | -0.3 | 8.2% | 31.3 | -7.3% | -0.8%
Cc1cc(Oc2ccccc2)nc(SCC(N)=O)n1 | 1.9 | -0.2 | -10.4% | -12.0 | 9.0% | -0.8%
COc1ccccc1NC(=O)c1ccc(S(=O)(=O)N2CCOCC2)cc1 | 2.6 | -0.9 | 23.1% | 5.9 | 9.7% | 0.6%
Cc1nnc(SC(C)C(=O)NC2CCCCC2)[nH]c1=O (stereo unspecified) | x | -0.3 | 0.8%[15.4 µM] | -13.2 | -8.6% | x
CCOC(=O)CSC1=C(C#N)C(c2ccccc2OCC)C(C(=O)OCC)C(=O)N1 (stereo unspecified) | 3.5 | 2.0 | -5.9% | 33.0 | -18.4% | 0.1%
COCCCN1C(=O)c2ccc(C(=O)OCC(=O)N(CCC#N)c3cc(C)cc(C)c3)cc2C1=O | x | -0.3 | -37.9%[inhibitor] | 3.8 | -6.5% | -1.0%
Cc1noc(C)c1C(=O)N1CCCC(C)(C(=O)NS(=O)(=O)C2CC2)C1 (stereo unspecified) | x | -0.4 | x | -3.0 | x | 1.3%

(list continues)
SMILES | Menin-MLL FL inh | TRPML1 ag | gsp ag | TRPML1 inh | gsp antagonist | ClpP mod
CCN(CC)c1ccc(NC(=O)CC2Oc3ccccc3NC2=O)c(C)c1 (stereo unspecified) | 1.0 | 0.5 | -6.9% | 3.9 | -8.6% | 3.1%
COc1ccc(Cl)cc1C(=O)NCCCn1ccnc1 | -5.4 | 0.8 | 2.3%[15.4 µM] | 18.8 | 5.9% | -3.5%
C=CCn1c(N)c(C(=O)OCC)sc1=S | 0.1 | -0.4 | -4.7% | 6.5 | 14.7% | 0.4%
CCCCc1ccc(N=N/C(C(=O)Nc2ccc(NC(C)=O)cc2OC)=C(/C)O)cc1 | u | 0.9 | u | 1.1 | 6.9% | -1.8%
COC(=O)c1cccc(NC(=S)N2CCOCC2)c1 | -0.7 | 0.1 | 9.1%[15.4 µM] | 13.9 | 5.4% | x
CCCCn1nc(C(=O)NC2CCCCCC2)c2ccccc2c1=O | x | 1.5 | 0.7% | -7.2 | 7.1% | 2.2%
Cc1ccc(/C=C/C(=O)OCC(=O)NCc2ccccc2)o1 | x | -0.3 | 9.5%[15.4 µM] | 3.5 | -4.4% | x
c1ccc2c(N3CCCC3)nc(-c3ccncc3)nc2c1 | -1.3 | -1.9 | 24.2% | -14.7 | u | -7.5%
O=C(Nc1cccc(S(=O)(=O)NC2=NCCC2)c1)c1ccccc1 | x | 0.0 | 27.0% | -11.4 | 5.5% | -6.7%
O=C(NCc1cccnc1)C(=O)NCC1OCCCN1S(=O)(=O)c1ccc(Cl)cc1 (stereo unspecified) | -5.4 | -0.5 | 12.9% | 3.4 | 0.4% | x
O=Cc1ccc2c(c1)CCN2Cc1ccccc1 | 2.0 | 2.5 | 5.4% | -2.9 | 0.9% | -13.1%
CCCCNC(=O)COC(=O)c1c2c(nc3ccccc13)CCC2 | 7.7 | -0.1 | 8.1%[15.4 µM] | 6.1 | -4.3% | -1.2%
